# Mtb H37Rv = M. tuberculosis H37Rv growth inhibitors, H37Rv strain (AID 1626) | 220,000 tested, 0.95% active | one-dose inhibition, % at 10 µM; IC50 in µM for titrated hits | M. tuberculosis H37Rv growth inhibition; higher % means a stronger effect;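 active = confirmed in a dose series; inconclusive = inhibition above 80% but not taken into the dose series; inactive = below 80% or under 30% at every dose of the series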;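 note: bacteria incubated seven days before Alamar blue readout; 0% = bacteria only wells and 100% = bacteria with antibiotic wells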
# Mtb betalactam = beta-lactam sensitization of Mtb H37Rv, H37Rv. 330,000 tested, 0.27% active. M. tuberculosis H37Rv growth with meropenem, percent inhibition; hits of this screen are not shown here. inhibition, % at 25 µM;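 active = about 74% or more and at least 40 points above the plate without the antibiotic, then above 30% in a dose series; inconclusive = first-round hits that could not be retested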;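 note: growth measured after seven days incubation then overnight dye step; 0% = bacteria only wells and 100% = bacteria with antibiotic; twin plates without the antibiotic show which effects depend on it; some results filed as inactive read as strong as hits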
# YopH inh = YopH tyrosine phosphatase inhibitors, primary screen, biochemical, fluorescence Ex485/Em525 | inhibition, %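 (about 10 µM by stock and volumes)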 | 140,000 tested, 0.16% active;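 active = inhibition of 50% or more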;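 note: controls were vehicle for no effect and minimum signal wells for full effect; inactives centre near -20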
# Arbovirus anti = antivirals against arbovirus infection, primary screen, cell-based, full library, 10K replicate subset; arbovirus infection cell-based antiviral screen; inhibition, % at 10 µM; 200,000 tested, 0.37% active; AID 1251, 2008;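 active = inhibition from about 30%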;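 note: bluetongue infection of BSR cells; cell survival read as ATP light after 72 h; 0% = infected wells without compound and 100% = uninfected wells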
# RecA splice inh = Mtb RecA intein splicing inhibitors, primary screen, biochemical, fluorescence, HTS | Protein RecA (Mycobacterium tuberculosis (strain ATCC 25618 / H37Rv)), P9WHJ3 | cell-free RecA intein splicing | inhibition, %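 (about 9 µM by stock and volumes)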 | 290,000 tested, 0.75% active | AID 2221, 2009; in the data active = inhibition above about 30%; inconclusive = no clear call, values can overlap the other calls;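 note: 0% = vehicle wells and 100% = reference inhibitor control wells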
# Target sequence (P9WHJ3 whole entry, looked up, canonical isoform): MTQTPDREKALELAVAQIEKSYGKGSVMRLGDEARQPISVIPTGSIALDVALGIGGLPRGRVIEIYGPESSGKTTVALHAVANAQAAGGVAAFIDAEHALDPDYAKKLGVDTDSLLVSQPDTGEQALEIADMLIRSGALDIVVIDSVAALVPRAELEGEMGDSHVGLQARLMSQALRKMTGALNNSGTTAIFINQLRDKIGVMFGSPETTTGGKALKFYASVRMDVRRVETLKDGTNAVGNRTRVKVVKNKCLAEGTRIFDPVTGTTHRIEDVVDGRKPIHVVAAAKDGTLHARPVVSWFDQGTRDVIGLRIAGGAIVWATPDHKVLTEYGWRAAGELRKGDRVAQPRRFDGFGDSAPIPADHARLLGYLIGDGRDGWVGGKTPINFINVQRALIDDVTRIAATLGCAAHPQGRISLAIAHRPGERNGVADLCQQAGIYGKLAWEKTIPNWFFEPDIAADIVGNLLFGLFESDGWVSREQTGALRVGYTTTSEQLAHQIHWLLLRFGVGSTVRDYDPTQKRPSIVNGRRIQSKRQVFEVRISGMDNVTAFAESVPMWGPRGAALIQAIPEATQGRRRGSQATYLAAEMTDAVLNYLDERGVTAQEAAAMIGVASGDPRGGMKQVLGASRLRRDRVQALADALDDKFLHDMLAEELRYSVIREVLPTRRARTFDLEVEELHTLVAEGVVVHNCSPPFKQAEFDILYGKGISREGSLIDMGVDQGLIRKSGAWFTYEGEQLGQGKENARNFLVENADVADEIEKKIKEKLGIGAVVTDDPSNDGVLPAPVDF
# Arbovirus anti repeat = second read-out of Arbovirus anti, no call of its own (marks repeat the call); inhibition, %; measured here: 10K subset replicate screen; many hits read low in the repeat;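 first of two repeat runs on a subset; 0% = infected and 100% = uninfected wells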
# Active calls of the source: *; i = inactive; ? = inconclusive; / = not tested or not shown. Some of the compounds tested; the hit share may differ from the screen's.
SMILES,Mtb H37Rv,Mtb betalactam,YopH inh,Arbovirus anti,RecA splice inh,others
COc1ccc([N+](=O)[O-])cc1/C=N/NC(=O)Cc1ccccc1,-6.4%,1.1,/,-6.3,-2.2,
C=C(C)COc1ccc(-c2n[nH]c(C)c2-c2ccccc2OC)c(O)c1,6.8%,6.7,-34.4,-29.0,2.6,
CCOC(=O)N1CCC(Nc2c(NCCN3CCN(c4cccc(Cl)c4)CC3)c(=O)c2=O)CC1,10.7%,-3.8,-45.8,1.0,1.3,
COc1cc2c(cc1OC)-c1c(OC)c(OC)c(OC)c3ccnc(c13)C2=O,52.1%,32.3,-10.0,-39.4,9.5,
Cc1c(NC(=O)c2c(F)cccc2F)c(=O)n(-c2ccccc2)n1C,-9.7%,-9.7,-21.7,2.4,0.0,
Cc1ccc(S(=O)(=O)N(C)C)cc1NC(=O)COC(=O)/C=C/c1cccs1,/,-2.4,/,/,1.6,
COc1ccccc1CN(Cc1nc2ccccc2c(=O)[nH]1)C(=O)Nc1ccc(C)cc1,15.5%,9.5,-20.8,6.7,0.2,
Cc1ccc(C2=NN3C(=O)c4ccccc4C3C2)cc1 (centres undefined),1.7%,/,/,/,1.9,
COc1ccccc1N1CCN(S(=O)(=O)CCNC(=O)C23CC4CC(CC(C4)C2)C3)CC1,/,-0.7,/,/,4.1,
CS/C(=N\S(=O)(=O)c1cccs1)NC(=O)CSc1nc2ccccc2s1,-3.7%,1.2,-51.0,-6.6,/,
CCOC(=O)c1c(C)[nH]c(C)c1C(=O)CSc1nc(N)cc(=O)[nH]1,-11.6%,3.5,20.9,3.0,-1.2,
COc1ccc(C2N(C(=O)C(F)(F)F)C(C)CN2S(=O)(=O)c2ccc(C)cc2)cc1 (centres undefined),/,9.2,/,/,8.3,
O=C(c1cc2sccc2n1Cc1ccccc1)N1CCCc2ccccc21,13.1%,-8.1,-5.5,-12.1,7.2,
COc1ccccc1N1CCN(c2ccc(-c3ccccc3)nn2)CC1,2.8%,77.4,-13.9,-20.5,/,
O=C1C(=O)N(CCN2CCOCC2)C(c2ccccc2F)/C1=C(\O)c1ccc(S(=O)(=O)N2CCOCC2)cc1 (centres undefined),/,-1.8,/,/,-8.2,
CCC(CO)N=CC1=C(O)CC(C)(C)CC1=O (centres undefined),-10.2%,-5.7,-24.1,10.5,-0.7,Arbovirus anti repeat=8.0
Cn1cccc1/C=C1\CCc2ccccc2C1=O,/,-4.5,/,-6.9,7.0,
Cc1cccc(NC(=S)NNC(=O)c2csc(C)c2)c1,6.2%,-3.2,-34.5,5.1,6.9,
COc1ccccc1NC(=O)CCCCCN1C(=O)c2cccc([N+](=O)[O-])c2C1=O,/,95.4,/,/,-2.0,
CC(C)(C)C1CC=C2C(C#N)=C(N)C(C#N)(C#N)C(c3cccs3)C2C1 (centres undefined),5.1%,0.5,3.1,/,19.1,
Cc1ccc(S(=O)(=O)Nc2cc(C)nn2-c2ccccc2)cc1,-7.6%,0.4,-21.4,8.5,-0.8,
COc1ccc(-c2cc(=O)oc3cc(OCC(=O)N[C@@H](Cc4c[nH]c5ccccc45)C(=O)O)ccc23)cc1,/,-3.2,/,/,3.0,
O=C(COc1ccc2ccc(=O)oc2c1)Nc1cccnc1,/,-5.7,/,/,1.1,
COc1ccc(-c2nnc(NC(=O)CS(=O)(=O)c3ccc(F)cc3)o2)c(OC)c1,/,-1.2,/,/,-4.5,
O=C(COC(=O)C1=COCCO1)Nc1ccccc1Oc1ccccc1,63.6%,86.6,-21.2,-3.7,0.3,
C/C(=N\OC(=O)NC1CCCCC1)c1sc(-c2ccccc2)nc1C,5.9%,94.6,-22.2,-7.9,14.1,
COc1ccccc1/C=C(\NC(=O)c1cccc(C)c1)C(=O)Nc1ccccn1,/,-3.1,/,/,-2.3,
CCc1nnc(NC(=O)c2ccc(N(C)S(=O)(=O)c3ccccc3)cc2)s1,-9.2%,1.9,-3.1,4.3,-0.2,
COC(=O)c1ccc(NC(=O)Nc2ccc(OC)c(OC)c2)cc1,-5.1%,-10.7,/,-1.9,1.1,
CC1=C(C(=O)NCCN2CCOCC2)C2(CCC(C)CC2)OC1=O (centres undefined),-0.3%,-0.5,-31.0,0.6,1.1,
O=C(Cn1ncc2c1-c1ccccc1OC2)N(Cc1ccco1)C1CCCCC1,7.2%,-7.9,-33.0,3.8,-0.8,Arbovirus anti repeat=-2.2
Cc1ccc(N(CC(=O)NCCSCc2ccco2)S(=O)(=O)c2ccc(C)cc2)cc1,-4.7%,-10.4,-28.7,-6.4,-2.4,
Cc1cc2[nH]c(=O)c(=O)[nH]c2cc1S(=O)(=O)NC1CCC(C)CC1 (centres undefined),/,3.1,/,/,-1.8,
CCN(Cc1ccccc1)Cc1nc(CCc2ccccc2)no1,3.2%,-6.7,/,-3.9,-2.5,
CN(C)c1ccc(C(=O)OCC(=O)N2CCCC2)cc1,/,1.5,/,/,-1.5,
CC1=NNC(=O)C1C(c1cccc(O)c1)C(C#N)C#N (centres undefined),-1.6%,1.7,/,/,59.6*,
COc1ccc(C/C(O)=C(\C#N)c2nc3ccccc3s2)cc1,24.8%,98.8,-5.9,3.1,-2.2,
Cc1cccc(OCC(=O)Nc2ccc(S(=O)(=O)N3CCCC3)cc2)c1,/,1.4,-28.0,7.9,2.8,
CCCCn1c(N)c(N(CC)C(=O)c2cccc(OC)c2)c(=O)[nH]c1=O,-5.0%,-5.5,/,7.0,1.3,
CCOc1ccc(S(=O)(=O)NCCC(=O)NCCOc2ccccc2OC)cc1,/,-16.9,/,/,0.7,
O=C(NCC(=O)N1CCC(Cc2ccccc2)CC1)c1ccc(Cl)cc1,/,41.3,/,/,4.6,
Cn1cc([N+](=O)[O-])c(C(=O)Nc2ccc3nc(-c4ccccc4)[nH]c3c2)n1,0.4%,-8.3,-18.7,15.4,-3.5,
Nn1c(SCC(=O)NC2CCCCC2)nnc1-c1ccccc1,-5.8%,4.6,-27.2,0.8,4.0,Arbovirus anti repeat=3.2
O=C(O)c1ccc(/C=N/Nc2ccc(F)cc2F)cc1,?,89.6,/,-26.4,-1.5,
Cc1ccc(-c2c3c(=O)n(C)c(=O)n(C)c3cn2Cc2cccnc2)cc1,-2.4%,0.0,-38.9,4.0,0.0,
CC(NC(=O)C(=O)Nc1nccs1)c1ccccc1 (centres undefined),-0.9%,-2.0,/,/,-2.0,
COc1ccc2[nH]c(=O)c3c(c2c1)OC(C)(C)C=C3,-1.5%,-13.0,-26.3,5.5,-6.5,
COc1ccc(CCNC(=O)Cn2cnc3scc(-c4ccccc4)c3c2=O)cc1OC,1.6%,1.8,/,-3.9,-3.7,

# Quoted at random: four records from the list
SMILES,Mtb H37Rv,Mtb betalactam,YopH inh,Arbovirus anti,RecA splice inh,others
COc1ccc(C/C(O)=C(\C#N)c2nc3ccccc3s2)cc1,24.8%,98.8,-5.9,3.1,-2.2,
Cc1ccc(-c2c3c(=O)n(C)c(=O)n(C)c3cn2Cc2cccnc2)cc1,-2.4%,0.0,-38.9,4.0,0.0,
COc1ccc(CCNC(=O)Cn2cnc3scc(-c4ccccc4)c3c2=O)cc1OC,1.6%,1.8,/,-3.9,-3.7,
CCOc1ccc(S(=O)(=O)NCCC(=O)NCCOc2ccccc2OC)cc1,/,-16.9,/,/,0.7,

# Sorted by number of heavy atoms (descending): some entries from above
SMILES,Mtb H37Rv,Mtb betalactam,YopH inh,Arbovirus anti,RecA splice inh,others
Cn1cc([N+](=O)[O-])c(C(=O)Nc2ccc3nc(-c4ccccc4)[nH]c3c2)n1,0.4%,-8.3,-18.7,15.4,-3.5,
CCCCn1c(N)c(N(CC)C(=O)c2cccc(OC)c2)c(=O)[nH]c1=O,-5.0%,-5.5,/,7.0,1.3,
Nn1c(SCC(=O)NC2CCCCC2)nnc1-c1ccccc1,-5.8%,4.6,-27.2,0.8,4.0,Arbovirus anti repeat=3.2

# Going on with the list.
SMILES,Mtb H37Rv,Mtb betalactam,YopH inh,Arbovirus anti,RecA splice inh,others
O=C1c2cccc3cccc(c23)C(=O)N1CCCCCc1n[nH]c(=S)o1,2.0%,9.2,/,0.1,1.6,
O=C(NCc1ccncc1)Nc1ccc2c(c1)OCO2,-0.9%,1.5,/,-1.7,-2.0,
Cc1ccc(NC(=S)Nc2ccccn2)c(C)c1,7.2%,0.1,/,/,1.8,
CC(=O)Nc1ccc(S(=O)(=O)N(CC(=O)Nc2cc(C)on2)Cc2ccc(F)cc2)cc1,4.8%,0.2,/,/,2.4,
CC(=O)C1=C(O)C(=O)N(c2nccs2)C1c1ccccc1 (centres undefined),7.8%,-10.0,-18.6,9.3,-1.8,
Cn1cccc1CC(=O)N/N=C\c1c2ccccc2cc2ccccc12,15.8%,20.6,-6.0,11.4,7.9,
O=C(Nc1ccc(S(=O)(=O)N2CCOCC2)cc1)c1ccco1,-5.7%,-5.7,3.7,-2.7,-0.5,
CCOC(=O)c1nc(-c2ccc(OC)c(OC)c2)no1,-0.8%,8.5,/,1.8,-6.1,
CC(NS(=O)(=O)c1ccc2c(c1)OCCCO2)C(=O)O (centres undefined),-5.1%,-0.3,-7.7,-8.5,-2.1,
O=C(c1cc(-c2cccnc2)nc2ccccc12)N1CCCc2ccccc21,8.2%,5.6,-7.8,7.5,-2.9,
O=C(NN=C1CCCCCCCCCCC1)c1cccnc1,-3.0%,-0.3,/,4.9,-2.6,
Cc1nc(SCC(=O)N2CCOCC2)c2c(C)c(C)sc2n1,/,-2.6,/,/,-0.9,
C/C(=N\NC(=O)c1nn(C)c(C)c1Br)c1ccc(NC(=O)C2CCCC2)cc1,/,1.0,/,/,-1.8,
O=c1cnnc(N/N=C/c2cccs2)[nH]1,0.9%,10.0,/,/,-2.1,
O=C(NCc1ccc(F)cc1)C1CC(=O)N(Cc2ccco2)C1 (centres undefined),/,3.3,/,/,-2.6,
C/C(=N/NC(N)=S)c1cc2ccc(O)cc2oc1=O,-5.7%,-4.9,/,/,i,
O=C1CCCN2N=C(SCC(=O)N3N=C(c4ccc(Br)cc4)CC3c3ccc(F)cc3)SC2=N1 (centres undefined),1.8%,-3.3,/,12.0,-0.8,
COc1ccc(C(=O)Cc2ccccc2)cc1OC,7.5%,5.3,-34.5,-1.6,-2.5,
Cc1cc(C)cc(NC(=O)[C@@H](NC(=O)c2ccco2)C(C)C)c1,/,4.8,/,/,0.9,
Cc1oc2c(F)c(F)c(F)c(F)c2c1S(=O)(=O)Nc1cccc(C(F)(F)F)c1,/,5.7,/,/,12.5,
Cn1c(=O)c2[nH]c(SCc3ccccn3)nc2n(C)c1=S,-3.8%,3.1,/,/,-0.7,
Cc1ccc(NC(=S)c2nc3ccccc3[nH]2)c(C)c1,22.1%,7.9,-21.1,-8.7,3.5,
CC(C)CNC(=O)COC(=O)c1c2c(nc3ccccc13)/C(=C/c1cccs1)CC2,32.2%,2.4,-19.1,-12.5,-242.5,
COc1ccc(/C=N/NC(=O)c2cccnc2)cc1CSc1nc2ccccc2s1,0.0%,13.9,-24.6,0.7,9.3,
COC(=O)Nc1ccc(C)c2nsnc12,/,-3.6,-11.9,1.4,-6.4,
CCn1c(CNc2ccc(Cl)cc2)nnc1SCC#N,-15.5%,4.1,/,3.5,-2.9,
FC(F)C(F)(F)C1=CC(c2ccccc2)=NCCN1,-4.5%,-2.3,-15.7,5.1,5.7,Arbovirus anti repeat=10.2
Cn1cc(C(CC(=O)O)C(=O)O)c2ccccc21 (centres undefined),-5.5%,-1.7,-48.3,5.7,-1.2,

# Entries above that have a cyano group, in the order listed:
SMILES,Mtb H37Rv,Mtb betalactam,YopH inh,Arbovirus anti,RecA splice inh,others
CC(C)(C)C1CC=C2C(C#N)=C(N)C(C#N)(C#N)C(c3cccs3)C2C1 (centres undefined),5.1%,0.5,3.1,/,19.1,
CC1=NNC(=O)C1C(c1cccc(O)c1)C(C#N)C#N (centres undefined),-1.6%,1.7,/,/,59.6*,
COc1ccc(C/C(O)=C(\C#N)c2nc3ccccc3s2)cc1,24.8%,98.8,-5.9,3.1,-2.2,
CCn1c(CNc2ccc(Cl)cc2)nnc1SCC#N,-15.5%,4.1,/,3.5,-2.9,
